PKD1 kinase inh – inhibitors of human PKD1 kinase | Q15139 | PKD1 kinase fluorescence polarization assay | inhibition, %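 (about 10 µM by stock and volumes)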 | 200,000 tested, 0.056% active | AID 797;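 active means inhibition of 50% or more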;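 further: controls were vehicle for no effect and a reference inhibitor for full effect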
HSV replic up – increases HSV replication in cells; HSV replication augmentation in cells, fold increase; maximum fold increase; 220,000 tested, 0.005% active;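 active means peak rise of 1.5-fold or more in the series; inconclusive means self-fluorescent or not available for retest; tested in PC3 cells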;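 further: first round at 10 µM; read as green reporter fluorescence; hits show the peak of a series up to 25 µM; 1 = signal of infected wells without compound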
INS promoter inh – TRM-6 insulin promoter activity inhibition; TRM-6 cells (human fetal islet line), insulin promoter-eGFP reporter, imaging; reporter expression induced with tamoxifen; inhibition, % at 2 µM; 130,000 tested, 0.9% active;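 active means inhibition above the mean plus 3 SD, with well images judged a real hit on visual review, cut at about 60% in these data, passing the limit was not always enough; inconclusive means inhibition over the cutoff but images rejected on review; inactive means inhibition not above the cutoff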
GALR2 agonist – activates the human galanin receptor 2; GALR2-expressing cells, agonist activation read-out; activation, %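 (tested at 5 µM)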; O43603; AID 803; 140,000 tested, 0.48% active;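 active means above mean plus 3 SD of all compounds, about 5% in these data, not always enough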;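 further: 0% = vehicle buffer wells and 100% = reference agonist at full effect; tested in CHO reporter cells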
Target sequence (O43603 whole entry, looked up): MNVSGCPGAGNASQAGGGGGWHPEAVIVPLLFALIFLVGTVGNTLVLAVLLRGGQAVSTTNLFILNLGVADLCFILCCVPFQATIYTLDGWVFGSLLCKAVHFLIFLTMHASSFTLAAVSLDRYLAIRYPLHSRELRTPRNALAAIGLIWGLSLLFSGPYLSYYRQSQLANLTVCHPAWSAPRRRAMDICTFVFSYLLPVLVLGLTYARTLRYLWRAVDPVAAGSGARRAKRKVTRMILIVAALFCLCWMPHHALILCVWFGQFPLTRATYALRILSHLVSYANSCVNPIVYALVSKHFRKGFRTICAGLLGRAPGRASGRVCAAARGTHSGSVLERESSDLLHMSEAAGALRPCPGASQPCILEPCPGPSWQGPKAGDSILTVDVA
RGS16-Gao HTS – RGS16-Galphao interaction regulator (human) | bead-based flow cytometry RGS16-Galphao binding, fluorescence; actives lie on both sides | AID 1441 | 220,000 tested, 0.38% active | binding response (% of control), % at 10 µM;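 active means below 25% or above 175%, edge rows of some plates excepted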;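 further: Galphao activated by GDP with aluminum fluoride before binding; 100% = wells without compound and 0% = beads without RGS; some results beyond the cut were filed as inactive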
Target sequence (O15492 whole entry, looked up): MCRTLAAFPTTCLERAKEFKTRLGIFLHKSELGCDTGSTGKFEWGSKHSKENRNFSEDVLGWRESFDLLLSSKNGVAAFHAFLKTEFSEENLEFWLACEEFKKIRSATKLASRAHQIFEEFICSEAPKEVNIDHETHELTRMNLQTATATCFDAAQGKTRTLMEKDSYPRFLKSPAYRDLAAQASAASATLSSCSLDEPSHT
Target sequence (P09471 whole entry, looked up): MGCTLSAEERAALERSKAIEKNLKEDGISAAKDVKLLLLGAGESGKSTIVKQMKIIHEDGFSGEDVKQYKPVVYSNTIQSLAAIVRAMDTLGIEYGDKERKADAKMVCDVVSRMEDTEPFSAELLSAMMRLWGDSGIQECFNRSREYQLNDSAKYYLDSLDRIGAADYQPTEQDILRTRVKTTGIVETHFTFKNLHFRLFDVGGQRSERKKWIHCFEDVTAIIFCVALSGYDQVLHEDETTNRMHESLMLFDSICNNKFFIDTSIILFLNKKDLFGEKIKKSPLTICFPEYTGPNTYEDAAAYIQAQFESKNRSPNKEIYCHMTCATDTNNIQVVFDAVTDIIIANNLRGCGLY
INS promoter inh cell count – second read-out of INS promoter inh, no call of its own (marks repeat the call); normalized cell count, %; measured here: cell count, toxicity; reference of the scale not given here;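 cells exposed to compound for 48 h; stained nuclei by imaging scaled within each plate; lower means fewer cells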
HSV replic up primary fold – recorded beside HSV replic up, whose call it bears; fold increase; compound at 10 µM; measured here: primary screen fold increase 10 uM; tested in PC3 cells;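 GFP signal in the first replicate; 1 = infected wells without compound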
The depositor's hits bear a star; i = inactive; ? = inconclusive; · = no result given.

SMILES	PKD1 kinase inh	HSV replic up	HSV replic up primary fold	INS promoter inh	INS promoter inh cell count	GALR2 agonist	RGS16-Gao HTS
CC(=O)NNC(=O)CC(=O)Nc1nc(C23CC4CC(CC(C4)C2)C3)cs1	-15	i	1.1	14	66	-0.4	59
CCOCCCNC(=O)C1CCC(=O)N1CCc1ccccc1 (centres undefined)	-10	i	1.1	16	173	0.5	103
O=C(NCC1CCCO1)C(=O)NCC(c1ccco1)N1CCN(c2ccc(F)cc2)CC1 (centres undefined)	-11	i	0.98	7	83	-0.6	100
O=C(O)c1ccc(Nc2nc(-c3cc4ccccc4oc3=O)cs2)cc1O	3	i	1	·	·	·	98
Cc1cccc2c1-c1sc(C(=O)Nc3cccc([N+](=O)[O-])c3C)cc1CO2	-7	i	0.8	-61	81	-1.6	114
CCN(CC)c1ccc(C(=O)N/N=C(\C)c2ccc(OC)c(OC)c2)cc1	-5	i	0.89	·	·	0.1	103
CCNC(=O)c1ccc(-n2nc(C(F)(F)F)c3c2CCCC3)cc1	4	i	0.87	7	106	-1.3	116
Cc1ccc(C)c(-c2nc3ccc(N)cc3[nH]2)c1	-14	i	0.91	-24	105	-1.7	102
NC(=O)NC(=O)COC(=O)[C@H](Cc1ccccc1)NC(=O)c1cccs1	2	i	1	·	·	·	100
CC(/C=C(\NC(=O)c1ccccc1)C(=O)N=Nc1c(O)[nH]c2ccc(C)cc12)=C\c1ccccc1	3	i	0.8	31	126	-2.4	102
O=C(NCCC(=O)N1CCN(c2ncccn2)CC1)c1ccccc1	-2	i	0.94	36	110	-1.2	102
Cc1ccc(-c2n[nH]c3c2C(c2ccccc2)N(c2ccc(C(=O)O)cc2)C3=O)cc1 (centres undefined)	·	i	1.1	·	·	·	98
CCOC(=O)CSC1=C(C#N)C(c2ccc(C)cc2)C2=C(CCCC2=O)N1 (centres undefined)	1	i	0.85	·	·	-2.6	101
COc1cccc(C(=O)NCC(=O)N/N=C/c2ccc(OC(=O)c3cccs3)c(OC)c2)c1	-4	i	0.95	-12	45	-0.7	102
N#C/C(=C\c1ccc[nH]1)Sc1nc2ccccc2s1	1	i	0.91	-3	131	-2.0	80
COc1ccc(C2CC(c3ccccc3)=NN2c2ccc(N)cc2)cc1 (centres undefined)	2	i	0.94	-125	88	-0.4	63
c1coc(-c2nn3c(-c4ccco4)nnc3s2)c1	-13	·	·	·	·	0.0	88
CCOC(=O)c1[nH]c2ccc(F)cc2c1NC(=O)c1cc(OC)c(OC)c(OC)c1	2	i	0.87	-16	82	-1.1	105
COc1ccc(Nc2nc3[nH]c(=O)cc(O)c3s2)cc1	-5	i	0.83	0	140	·	12*
Cc1oc(/N=C/c2cccc3ccccc23)c(C#N)c1C	-12	i	1.2	15	89	-1.2	164
CC(C)CN(CC(C)C)S(=O)(=O)N1CCC(C(=O)N2CCc3ccccc3C2)CC1	-18	i	1.1	-28	140	-0.5	98
CCNC(=O)NC(=O)C(C)Sc1ncc(C(F)(F)F)cc1Cl (centres undefined)	-3	i	1.1	-14	88	·	96
Cc1cc2cc(CNC(=O)C(C)Oc3ccccc3)ccc2n1C (centres undefined)	·	i	1.2	·	·	·	96
Cc1cc(C(=O)COC(=O)Cn2c(C(F)(F)F)nc3ccccc32)c(C)n1Cc1ccco1	-3	i	0.97	·	·	0.3	99
CN(Cc1ccccc1)C(=O)c1ccccc1-c1ccccc1	-6	i	1.1	·	·	·	101
Cc1onc(-c2ccccc2)c1C(=O)NCC(O)c1ccccc1 (centres undefined)	·	i	0.94	·	·	·	99
CC(C)CCN(C)c1ccc(/C=N/n2cnnc2)cc1	0	i	0.9	0	114	-1.4	102
COc1cc2c(cc1OC)C(c1cccc([N+](=O)[O-])c1)N(C(=O)c1ccc(F)cc1)CC2 (centres undefined)	-5	i	0.83	-10	61	-1.9	103
CCC(C)Oc1cccc(OCCCCN2C(=O)NC(C)(C)C2=O)c1 (centres undefined)	2	i	0.88	-45	86	-2.0	102
Nc1ccc(C(=O)Nc2nccs2)cc1	9	i	0.95	40	71	·	101
CN1C(=O)/C(=C\C(=O)c2cccs2)c2ccccc21	-5	i	0.63	·	·	·	98
CS(=O)c1ccccc1-c1nc(-c2cccc(Cl)c2)no1 (centres undefined)	-10	i	1	·	·	·	99
CCOC(=O)C(=CNNc1ccccc1)C(=O)OCC	·	i	0.88	·	·	·	97
COc1cc(/C=N/NC(=O)c2cc(C)n(-c3ccc(F)cc3)c2C)cc(OC)c1O	-1	i	1	-129	121	·	99
COc1cccc(N2CCN(Cc3nnnn3C3CCCCC3)CC2)c1	-2	i	0.88	·	·	·	103
CC(=O)Nc1ccc(S(=O)(=O)NCCSCc2c(Cl)cccc2Cl)cc1	-3	i	0.73	-49	104	-1.5	101
COc1ccc(NC(=S)N2CCC(c3nc4ccccc4[nH]3)CC2)c(OC)c1	7	i	0.86	·	·	-2.2	99
COCCNC(=O)CCCn1c(=O)c2cc(OC)c(OC)cc2n(CC(=O)Nc2ccc(C)c(F)c2)c1=O	-8	i	0.94	·	·	·	100
COc1cc(NC(=O)c2cc(CC(C)C)on2)c(OC)cc1Cl	-3	i	0.98	-14	99	0.0	89
CCOc1cc(S(=O)(=O)N(CC)CC)ccc1Cl	-12	i	1	·	·	·	111
CCN(c1ccccc1)S(=O)(=O)c1ccc(Cl)c(NC(=O)COC(=O)c2ccc[nH]c2=O)c1	·	i	1	·	·	·	106
Cc1cc(C)nc(SC2c3cccc4cccc(c34)C2NS(=O)(=O)c2ccccc2)n1 (centres undefined)	2	i	0.89	-33	109	-1.2	26
COCCNC(=O)Cn1nc(C(F)(F)F)cc1C	-8	i	0.94	·	·	-3.5	131
Cc1nnc(SCC(=O)Nc2ccc(Cl)cn2)n1Cc1ccccc1	-7	i	0.98	·	·	-1.3	97
CC(/C=C/c1ccco1)=N\NC(=O)CNc1ccc2ccccc2c1	-1	·	·	54	68	·	98
Cc1cccc(N(CC(=O)N2CCCC2)S(=O)(=O)c2ccccc2)c1C	6	i	1	-11	164	-1.8	102
CCn1c(SCC(=O)c2ccc(CNC(C)=O)o2)nnc1-c1cccs1	-1	i	0.97	·	·	-0.9	92
C=CCc1cc(/C=N/NC(=O)CSc2nnc(CCCc3ccc(OC)cc3)o2)cc(OC)c1O	1	i	0.97	-4	83	1.1	105
CCCC(=O)NC(Nc1ccc(S(=O)(=O)Nc2cc(C)on2)cc1)(C(F)(F)F)C(F)(F)F	-2	i	1.1	-38	90	-1.1	106
COCC(=O)Nc1sc2c(c1C(=O)OC)C(C(=O)OC)CC2 (centres undefined)	7	i	1	-16	100	-1.1	109

Taken from above (four entries):
SMILES	PKD1 kinase inh	HSV replic up	HSV replic up primary fold	INS promoter inh	INS promoter inh cell count	GALR2 agonist	RGS16-Gao HTS
CCn1c(SCC(=O)c2ccc(CNC(C)=O)o2)nnc1-c1cccs1	-1	i	0.97	·	·	-0.9	92
C=CCc1cc(/C=N/NC(=O)CSc2nnc(CCCc3ccc(OC)cc3)o2)cc(OC)c1O	1	i	0.97	-4	83	1.1	105
CCCC(=O)NC(Nc1ccc(S(=O)(=O)Nc2cc(C)on2)cc1)(C(F)(F)F)C(F)(F)F	-2	i	1.1	-38	90	-1.1	106
COCC(=O)Nc1sc2c(c1C(=O)OC)C(C(=O)OC)CC2 (centres undefined)	7	i	1	-16	100	-1.1	109

Next part.
SMILES	PKD1 kinase inh	HSV replic up	HSV replic up primary fold	INS promoter inh	INS promoter inh cell count	GALR2 agonist	RGS16-Gao HTS
Cc1ccc(-n2c(CNc3ccc(F)cc3)nnc2SCC(N)=O)cc1	0	i	1	-44	134	1.3	103
Cc1ccccc1NS(=O)(=O)c1ccc(OCCNS(C)(=O)=O)cc1	-9	i	1	-38	85	-1.2	85
O=C(OCC(=O)N1CCCCCC1)c1n[nH]c(=O)c2ccccc12	-8	i	0.93	·	·	-1.4	77
CN1CCN(c2ccc(C(CC(N)=O)NC(=O)Cc3ccc(Br)cc3)cc2[N+](=O)[O-])CC1 (centres undefined)	·	i	0.77	·	·	·	100
CCOc1ccc2nc(NC(=O)Cn3cnc4c3c(=O)n(C)c(=O)n4C)sc2c1	-19	i	1	·	·	-0.3	91
COC(=O)CC1C(=O)NCCN1C(=S)Nc1ccc(F)cc1 (centres undefined)	·	i	0.96	·	·	·	97
O=C(CSc1nnnn1C1CCCC1)NCc1ccc2c(c1)OCO2	-5	i	0.99	8	103	-2.3	101
CCOC(=O)C1=NN(C(=O)Nc2ccc(OC)cc2)C2C(=O)N(c3cccc(C(F)(F)F)c3)C(=O)C12 (centres undefined)	4	i	1	34	89	-0.9	74
Cc1cc(NC(=O)Cn2cc([N+](=O)[O-])cn2)no1	3	i	0.94	·	·	·	98
CCSc1nc2cc(C(=O)OC)ccc2c(=O)n1CC	-14	i	0.94	19	88	-2.6	102
COc1ccccc1Oc1ccc2c(c1)C(=O)N(c1ccc(O)cc1)C2=O	-11	i	1.1	-12	120	-0.1	106
O=C(Nc1ccccc1)Nc1ccccc1Br	-2	i	0.94	27	168	·	109
CC(C)c1nc(C#N)c(NCCCn2ccnc2)o1	-6	i	1	·	·	-2.7	99
Nc1ccc2oc(=O)c3ccccc3c2c1	1	·	·	·	·	-2.4	94
CCCC(=O)N1CCN(c2ccc(NC(=O)c3ccc([N+](=O)[O-])o3)cc2)CC1	-1	i	0.7	·	·	·	101
Cc1cc([N+](=O)[O-])cc2ncccc12	-10	·	·	9	154	-2.3	117
CCOc1ccc(-n2c(SCC(=O)Nc3cc(C)on3)nnc2-c2c[nH]c3ccccc23)cc1	-1	i	0.75	47	70	-0.7	92
CN1CCN(C=Nc2nc3ccccc3nc2N2CCCC2)CC1	-1	?	·	32	106	·	98
Cc1ccc(C(=O)OCC(=O)c2c[nH]c3ccccc23)cc1NC(=O)c1ccco1	6	i	1	·	·	·	98
CCC(C)(C(=O)NC1CCCCC1)N(CC1CCCO1)C(=O)c1ccccn1 (centres undefined)	-3	i	0.95	-10	140	-2.4	103

Structures above that bear a hit mark in RGS16-Gao HTS.
| canonical_smiles | PKD1 kinase inh | HSV replic up | HSV replic up primary fold | GALR2 agonist | RGS16-Gao HTS |
| --- | --- | --- | --- | --- | --- |
| COc1ccc(Nc2nc3[nH]c(=O)cc(O)c3s2)cc1 | -5 | i | 0.83 | · | 12* |

New compounds follow
SMILES	PKD1 kinase inh	HSV replic up	HSV replic up primary fold	INS promoter inh	INS promoter inh cell count	GALR2 agonist	RGS16-Gao HTS
COc1ccc(OC)c(NC(=O)C(CC(=O)O)NCc2ccco2)c1 (centres undefined)	3	i	0.97	0	122	-1.3	100
O=c1[nH]c(/C=C/c2cccc3ccccc23)nc2ccccc12	-8	i	0.61	·	·	·	114
CCNc1ccc(S(=O)(=O)N(C)C)cc1NCC(=O)Nc1ccccc1Br	-3	i	1.1	·	·	·	98
CCOC(=O)c1sc2nc(NC(=O)C(C)(C)C)sc2c1C	4	·	·	·	·	0.6	103
CCN1CNC(=S)N(Cc2ccccc2)C1	5	i	1	·	·	-1.4	107
Cc1cc(NC(=O)c2noc3c2CCCCC3)nn1Cc1ccc(Cl)cc1	-6	i	0.88	·	·	-0.2	100
O=C(CCc1nnc(C2CCCCC2)o1)NCc1cccc(-n2cccn2)c1	-2	i	0.91	·	·	·	98
CCOc1ccc(Oc2nc(NCC(C)C)nc(OC)n2)nn1	-4	i	0.9	·	·	-0.8	99
Cc1ccc(C(O)c2ccncc2)cc1 (centres undefined)	-5	i	0.89	-3	152	-2.6	97
CC(NC(=O)c1ccccc1)c1nc2ccccc2n1Cc1ccc(C#N)cc1 (centres undefined)	2	i	0.92	-42	63	-0.6	105
CC(C)CC(=O)NC(=S)Nc1ccc(S(=O)(=O)N2CCCC2)cc1	3	i	0.95	36	79	·	99
O=S(=O)(Nc1ccc(-c2nnc(SCc3ccc(Cl)cc3)o2)cc1)c1ccccc1	0	i	0.97	-30	148	0.3	94
CC(=O)Nc1ccc(S(=O)(=O)NC2(C(F)(F)F)C(=O)NC(C)=C2C#N)cc1 (centres undefined)	-14	i	0.88	·	·	·	99
CNC(=O)C1=C(C)Nc2nc3ccccc3n2C1c1ccc(F)cc1 (centres undefined)	·	i	1	·	·	·	105
COc1cc(C2C3C(=O)N(c4ccccc4)C(=O)C3ON2c2ccccc2)cc(OC)c1OC (centres undefined)	-3	i	0.88	·	·	-2.0	76
CC(=O)Nc1c(C#N)c(C(C)(C)C)cn1C	-3	i	1.2	-2	93	-1.2	104
COc1ccc(C(=O)CCNc2cccc(Cl)c2)cc1	10	i	1.2	·	·	-0.4	98
CCOc1cc(NC(=S)NCCOC)c(OCC)cc1NC(=O)c1ccco1	-3	i	0.95	·	·	·	102
C#CC(=O)N(c1cc(OC)ccc1OC)C(C(=O)NC1CCCC1)c1cccs1 (centres undefined)	0	i	0.45	·	·	-0.3	102

An unsorted share of the library; overall some 1.3% were active at least once.
